# Bioassay records: PubChem BioAssay, National Center for Advancing Translational Sciences (NCATS)
# Sfp PPTase inh: inhibitors of Bacillus subtilis Sfp phosphopantetheinyl transferase. Biochemical Sfp PPTase activity, qHTS. Q9F4F7. actives 3.5% (n = 310,000). Potency, µM, without a hit: max response, negative = inhibition, most hits filed as inhibitors; active = well fitted inhibition curve with a large enough effect; inconclusive = small, poorly fitted or top-dose-only effect, or another doubt; inactive = no such curve, though single readings can be large or run the other way;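 note: the enzyme is Sfp with the accession as filed and its product quenches rhodamine fluorescence; potency is the fitted concentration of half-maximal effect; 0% = enzyme reaction without inhibitor and -100% = no enzyme wells; top concentration of the series not given in the record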
#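 After 15 min at room temperature with compound, 15 nM Sfp received 5 uM rhodamine-CoA plus 12.5 uM BHQ-2-ybbR (50 mM Hepes pH 7.6, 10 mM MgCl2). Rate came from the fluorescence difference over 30 min, ex 525/em 598 nm.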
# TRPML1 ag: activates the human TRPML1 channel; activation, % (no concentration beside the values); TRPML1-expressing cells, Ca2+ dye fluorescence, FDSS; host cell line not named in the record; reference of the full effect not given here; actives 0.12% (n = 410,000); Q9GZU1; in the data active = activation above about 50%; inconclusive = about 30% to 50%; inactive = below about 30%; note: 0% is about no effect; the text of the record puts the active cut at 80%
# Target sequence (Q9GZU1 whole entry, looked up): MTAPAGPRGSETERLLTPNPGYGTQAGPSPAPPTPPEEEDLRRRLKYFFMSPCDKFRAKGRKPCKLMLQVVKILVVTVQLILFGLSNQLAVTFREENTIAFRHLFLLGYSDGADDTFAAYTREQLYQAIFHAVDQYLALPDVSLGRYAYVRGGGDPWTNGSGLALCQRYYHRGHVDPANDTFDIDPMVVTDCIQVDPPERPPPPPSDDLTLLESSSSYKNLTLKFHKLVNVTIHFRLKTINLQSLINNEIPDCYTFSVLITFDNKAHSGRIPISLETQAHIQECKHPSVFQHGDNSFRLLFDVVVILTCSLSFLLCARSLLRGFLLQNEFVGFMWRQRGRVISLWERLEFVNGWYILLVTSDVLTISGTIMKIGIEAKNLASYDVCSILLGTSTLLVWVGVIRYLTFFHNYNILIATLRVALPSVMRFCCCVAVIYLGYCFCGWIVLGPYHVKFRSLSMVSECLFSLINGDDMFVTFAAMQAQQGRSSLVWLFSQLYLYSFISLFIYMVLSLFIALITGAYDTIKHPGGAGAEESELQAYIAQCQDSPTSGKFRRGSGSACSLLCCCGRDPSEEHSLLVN
#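 Tetracycline-induced TRPML1-DL cells are seeded and incubated overnight before loading with a no-wash Ca2+ dye and quencher. Agonist activity is taken from the 110 s fluorescence read following compound pin-transfer on an FDSS, before EC80 54-4 challenge.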
# TRPV1 PAM: potentiators of human vanilloid receptor 1 (TRPV1); Q8NER1; TRPV1-expressing cells, Fluo-8 calcium influx, capsaicin EC20 potentiation; host cell line not named in the record; control for the full effect not named in the record; potentiation, % at 8.33 µM; actives 0.02% (n = 320,000); AID 540277; active means potentiation above 80%; inconclusive means 30% to 80%; inactive means below 30%; note: 0% is about no effect
#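 Fluo-8 calcium influx in TRPV1-expressing cells, kinetic read (ex 480/em 520 nm). Compound added and read 3 min for agonist activity, followed by capsaicin at EC20 final and 2 min further read for enhancement.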
# TRPML1 inh: human mucolipin-1 channel inhibition; Q9GZU1; TRPML1-inducible cells, Ca2+ dye fluorescence, FDSS; stronger effect = lower value; inhibition of EC80 agonist-evoked calcium signal; activity change, negative = inhibition, % (concentration not given with the values); actives 0.02% (n = 390,000); in the data active means activity change below about -50%; inconclusive means about -30% to -50%; inactive means above about -30%;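 note: stimulus is agonist 54-4 at its EC80 concentration; % is set by controls: 0 for no effect and ±100 for the full control effect; compound concentration not given in the record; the text of the record puts the active cut at -80%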
#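 Tet-induced TRPML1-DL cells loaded with Ca8 no-wash calcium dye were read kinetically on FDSS. Compound addition was followed by EC80 agonist 54-4 (4 uM final); inhibition was read over 110 s.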
# ClpP mod: qHTS Assay for Activators of ClpP; ATP-dependent Clp protease proteolytic subunit (Bacillus subtilis (strain 168)), P80244; purified B. subtilis ClpP, FRET peptide cleavage, 20 min; Potency, µM (titrated, usually from 57.5 µM), without a hit: top-dose activity change, negative = active; actives 1.9% (n = 340,000); AID 651965, 2013; active = well fitted falling curve with a large enough effect; inconclusive = small, poorly fitted or top-dose-only effect; inactive = no such curve, though single readings can be large or run the other way; note: potency is the fitted concentration of half-maximal effect; the source files actives as falling curves though it sought activators and does not explain the sign; nearly all actives have a fitted effect of over 65% in size; many hits overshoot -100%
# Target sequence (P80244 whole entry, looked up): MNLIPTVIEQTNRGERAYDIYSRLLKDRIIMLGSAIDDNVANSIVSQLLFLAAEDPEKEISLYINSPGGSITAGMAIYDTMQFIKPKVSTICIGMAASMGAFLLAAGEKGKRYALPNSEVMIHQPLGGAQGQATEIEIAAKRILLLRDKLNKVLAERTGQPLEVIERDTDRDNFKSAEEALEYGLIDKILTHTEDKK
#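 ClpP 10 microg/mL final, pH 8 Tris/KCl buffer with BSA, glycerol, Tween-20; compound pinned in; FRET-FV substrate; RT 20 min; Ex320/Em430; ΔFRET vs ADEP 5.8 microM, DMSO, no enzyme.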
# PINK1 modulator: changes PINK1 expression. PINK1 immunofluorescence, high-content cytometry, 24 h. actives 0.2% (n = 410,000). Potency, µM (top dose mostly 76.6 µM), inactives show at the top dose activation (PINK1 increase), actives largely listed as activators. AID 624263; active = well fitted activation curve with a large enough effect; inconclusive = small, poorly fitted or top-dose-only effect; inactive = flat fitted curve, though single readings scatter; cell line not stated here;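 note: potency is the fitted concentration of half-maximal effect; % of control where 0% means no effect; nearly all actives have a fitted effect of over 65% in size; a mitochondrial uncoupler was the plate control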
#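 Cells are seeded, rested 12 hours, then given compound at five concentrations or DMSO for 24 hours. After fixation, blocking and antibody staining, PINK1 amount and mitochondrial localization are scored; CCCP serves as control.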
# Menin MLL FP FL: displaces fluorescein MLL peptide from human menin; Fluorescence polarization, fluorescein-MLL peptide displacement from menin; FP activity change, % at 61.4 µM; 290,000 tested, under 10 active; inconclusive = falling polarisation curve, or a change in total fluorescence; inactive = total fluorescence flat and polarisation flat or rising; no compound was filed as active; the % refers to the polarisation; negative = inhibition;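 note: % of control where 0% means no effect; inhibitors lower the polarisation; unlabelled MLL peptide was the positive control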
# * = called active by the depositor; ? = inconclusive; · = not tested or not shown; & = joins results of further samples; [ ] = another dose, or the depositor's remark. Rows are unselected, and some 4.4% of all compounds hit somewhere here.
structure	Sfp PPTase inh	TRPML1 ag	TRPV1 PAM	TRPML1 inh	ClpP mod	PINK1 modulator	Menin MLL FP FL
C=CCn1cc(-c2cccc(C(F)(F)F)c2)cc(C#N)c1=O	3%	0.2	22	-7	·	0.1%	-0.5
Cc1cnc(C(=O)N2CCCC(N3CCN(c4cccc(C(F)(F)F)c4)CC3)C2)cn1 (configuration not stated)	17%	0.4	-1	28	0.6%	-0.3%	·
Cc1nc(=O)c(-c2ccccc2)c(C)n1CCCCCC(=O)O	8%	-0.4	8	7	-14%	0.5%	0.9
Cc1cc(C)nc(NCc2ccc(Cl)cc2)n1	17%	2.3	-3	24	-1.6%	6.8%	2.2
CCc1cc2c(=O)[nH]c(COC)nc2s1	26%	0.6	-2	3	-3.4%	2.9%	1.8
CCc1ccc(NC(=O)Cn2c(=O)n(CCC(=O)NCCc3ccc(OC)c(OC)c3)c(=O)c3ccccc32)cc1	·	0.7	·	9	-2.1%	1.3%	·
CC(C)OC(=O)CN1CCN(S(=O)(=O)c2cc(Cl)ccc2Cl)CC1	4%	0.1	-11	22	-1.8%	1.2%	-2.0
COc1ccc(N(CC(=O)NN=C2CCN(C)CC2)S(=O)(=O)c2ccc(NC(C)=O)cc2)cc1	13%	-0.6	8	3	·	6.5%	-5.5
O=C1CCc2ccc(OCCCCN3CCN(c4cccc(Cl)c4Cl)CC3)cc2N1	8%&-8%	-0.3	-11	3	1.3%	1.1%	-2.1&0.8
COc1ccc(C)cc1NC(=O)c1c(C)oc2ncn(CC(C)C)c(=O)c12	·	-0.3	·	14	-0.5%	2.0%	·
Cc1cccc(S(=O)(=O)Nc2nc3ccccc3nc2Nc2cccc(C(=O)O)c2)c1	14%	4.8	6	22	?	-0.3%	-0.7
O=C(NCc1ccccc1)C(c1ccncc1)N(C(=O)c1csnn1)c1cccc(F)c1 (configuration not stated)	15%	-0.3	17	1	·	1.5%	2.5
Nc1nc(N)nc(-c2ccccc2O)n1	10%	0.8	5	8	-5.7%	-0.3%	4.6
Cc1ccc(-n2nnnc2SCC(=O)NCC2CCCO2)cc1C (configuration not stated)	·	-0.4	-26	-12	-8.8%	1.6%	·
CCN1C(=O)[C@H]2[C@@H](c3ccc(Cl)cc3)N3C(=O)CN(CCOC)C(=O)[C@@]3(C)[C@H]2C1=O	-2%	-0.1	-5	-3	-2.1%	0.2%	-0.4
Cc1cccc(/C=N/NC(=O)Cc2cccs2)c1	6%	0.7	-7	36	·	4.9%	-1.8
C=CCN1c2ccccc2[C@]23C[C@@H](C(=O)OC)N(C(=O)c4ccc(Br)cc4)C2=NC(C(=O)OC)=C(C(=O)OC)[C@H]13	22%&-2%	-0.5	?	-4	-1.9%	?	-0.4[11.7 µM]
O=S(=O)(NCCc1ccc(Cl)cc1)c1cccc2cccnc12	0%	4.5	-1	21	-3.4%	0.0%	-3.8
Nc1ncnc(Oc2cccc3cccnc23)c1[N+](=O)[O-]	-16%	-0.1	0	2	·	-1.3%	-0.1
COc1ccc(-n2ncc(C(=O)NCCN3CCOCC3)c2C2CCN(C(=O)OC(C)(C)C)CC2)cc1	·	1.2	·	-26	-1.6%	0.3%	·
CCOC(=O)COc1ccc(Br)cc1C1NC(=O)NC(C)=C1C(=O)NCc1ccccc1 (configuration not stated)	8%	0.9	14	4	-1.0%	?	4.2
CCC(C(=O)NCCc1c[nH]c2ccc(C)cc12)c1ccccc1 (configuration not stated)	11%	2.3	-15	2	·	1.4%	-3.6
COc1ccc(C2CC(c3ccccc3)=NN2C(=O)COC(=O)C2CC2)cc1 (configuration not stated)	-5%	1.5	5	53	-3.7%	1.8%	0.6
COc1cc2c(cc1C1NC(=S)NC(C)=C1C(N)=O)CCCC2 (configuration not stated)	-13%	0.5	0	-22	1.8%	-0.5%	-0.3
CCOC(=O)c1c(C)c(C(=O)NCc2ccco2)c(C)n1Cc1ccccc1	-7%	3.5	7	11	-0.5%	0.1%[38.3 µM]	7.2
CCc1ccc(C(=O)COC(=O)CNC(=O)Cc2ccccc2)cc1	13%	1.5	15	-4	0.0%	0.3%	1.9
O=C(C1CCN(S(=O)(=O)c2cccc3nonc23)CC1)N1CCN(c2ccccc2F)CC1	·	2.1	·	12	-2.7%	1.4%	·
Cc1ccc(COCCN2CCN(S(=O)(=O)c3ccccc3)CCC2=O)cc1	7%	-1.2	24	-8	-1.3%	0.0%	6.6
O=S(=O)(NCC(c1cccnc1)N1CCc2ccccc2C1)c1ccccc1 (configuration not stated)	-3%	-0.1	2	-10	-1.6%	-0.7%	1.4
COc1cc(CN2CCCCCC2)cc(OC)c1OC	-11%	-1.1	8	-9	-0.3%	1.8%	-2.2
N#CC(C(=O)NC1CCCCC1)=C1CCCCC1	6%	-0.8	-3	11	-1.9%	0.5%	2.4
O=C(O)CCCN=CC1=C(O)CNC1=O	15%	-0.7	-1	3	·	-0.4%	0.3
COC(=O)c1ccc(CSc2nnc3n(Cc4ccccc4OC)c(=O)c4ccccc4n23)o1	-23%	1.6	0	6	-0.8%	4.6%[38.3 µM]	3.5
CC(C)Nc1nc2n(c(=O)n1)CCN2C(C)C	3%	-0.6	3	-6	2.5%	-1.4%	-0.2
CC(=O)Nc1nonc1-c1nnc(SCC(=O)Nc2ccc(C)cc2C)n1C	·	1.4	·	-6	-0.1%	0.2%	·
COc1ccccc1C(=O)n1nc(-c2ccco2)nc1NCc1ccc(Cl)cc1	·	0.4	·	40	-5.5%	1.4%	·
CCOC(=O)CCNC(=O)N1CCCC(C(=O)c2cc(C)c(OC)c(C)c2)C1 (configuration not stated)	19%	-0.5	-32	7	-0.2%	-0.5%	-5.7
COc1ccc(C(CNC(=O)C2CC2)N(C)C)cc1 (configuration not stated)	21%	-0.5	?	-7	-1.1%	0.5%	·
COc1cc2c(cc1OC)C(C)N(C(C)=O)CC2 (configuration not stated)	16%	0.1	0	?	0.5%	·	1.9
CCSc1nc(O)cc(=O)[nH]1	19%	0.1	19	5	1.7%	1.8%	-2.4
C[C@@]12CC(=O)NC1N(C(=O)c1ccccc1)C(c1ccccc1OC(=O)c1ccccc1)C2 (some centres not stated)	-3%	1.4	7	8	-2.6%	-1.2%	3.1
COc1ccc(CN2CCNC(=O)C2CC(=O)NCCCn2cccn2)cc1C (configuration not stated)	10%	0.0	28	6	-4.8%	1.1%	·
COc1ccc(Cl)cc1N1C(=O)CN(Cc2cc(OC)c(OC)c(OC)c2)C1=S	50µM*	1.0	9	15	0.5%	2.9%	3.3
Cc1cc(C)cc(NC(=S)N2C3CCCC2CC(NC(=O)C2CC2)C3)c1 (configuration not stated)	25%	0.6	5	-9	·	0.6%	·
CCC(C)NC(=O)c1cc(-c2cccc(OC)c2)on1 (configuration not stated)	·	0.0	·	23	-0.9%	1.3%	·
O=C(C1CC1)N1CCN(C(c2ccccc2)c2ccccc2)CC1	-2%	1.6	-20	6	-2.1%	7.3%[38.3 µM]	1.8
CC(C)Oc1ccc(OCCCN2CCCCCC2)cc1	-5%	1.0	-4	27	-1.8%	-2.7%	3.7
CCOC(=O)N1CCN(C(=O)CN(c2cccc(C(F)(F)F)c2)S(=O)(=O)c2ccccc2)CC1	9%	0.4	-25	5	-2.7%	1.5%[38.3 µM]	3.1
Cc1ccc(NC(=O)COc2coc(CN3CCc4ccccc4C3)cc2=O)cc1Cl	·	2.1	10	-5	-4.3%	?	·
CCC(=O)NCc1c(C)c(C)n(Cc2ccccc2)c1-n1cccc1	12%	1.0	-10	13	·	-2.6%	-0.1
CCSC(=O)N1CCN(/[N+]([O-])=N/Oc2ccc([N+](=O)[O-])cc2[N+](=O)[O-])CC1	·	1.5	·	30	·	5.2%	·
COc1ccc(NC(=O)CN(C)C(=O)c2cc(-c3ccc(Cl)cc3)nc3ccccc23)cc1	·	-0.9	9	-2	-1.7%	0.0%	·
COc1cccc(N2CCN(C(=O)CCS(=O)(=O)c3ccc4c(c3)CC(=O)N4C)CC2)c1	·	-0.2	·	29	1.9%	1.6%	·
Cc1nn(Cc2ccccc2)c(C)c1C(=O)NCCN1C(=O)S/C(=C\c2ccc(F)cc2)C1=O	2%	-0.8	4	12	-3.6%	9.8%	-5.4
COc1cc(=O)[nH]c(SC(C)C(=O)Nc2ccc3ccccc3c2)n1 (configuration not stated)	-1%	1.5	10	-14	·	0.0%	5.0
O=C(O)c1ccc(N(c2ccccc2)c2ccccc2)cc1	14%	0.0	7	12	16µM*	-4.5%	5.1
CCn1c(O)c(N=NC(=O)CNC(=O)/C=C/c2ccco2)c2ccccc21	?	0.3	6	-2	1.7%	·	6.3
Cc1cc(Cl)c(S(=O)(=O)N2CCCC2)cc1OCC(N)=O	5%	0.0	7	-7	-3.9%	-1.9%	0.4
Cc1cc(NC(=O)COc2nnc(-c3ccccc3)c3ccccc23)no1	11%	2.8	24	3	5.3%	-0.5%	1.2
Cc1ccc(SC2=NS(=O)(=O)c3ccccc32)c(C)c1	·	-0.4	·	·	-0.5%	0.2%	·

# Following part
structure	Sfp PPTase inh	TRPML1 ag	TRPV1 PAM	TRPML1 inh	ClpP mod	PINK1 modulator	Menin MLL FP FL
CCNC(=O)C1(C)CCN(C(=O)C(c2ccccc2)c2ccccc2)C1 (configuration not stated)	·	-0.7	·	·	0.0%	0.9%	·
Cc1cc(C)cc(NC(=O)CCn2ccnc2)c1	24%	0.5	-6	6	·	2.0%	0.4
COc1ccccc1Nc1nc(N)nc(CSc2nccc(C)n2)n1	8%	2.1	10	27	-0.1%	-2.2%	1.3
COc1ccc(Cn2c(N)c(C#N)c3nc4ccccc4nc32)cc1OC	16%	1.9	-1	-1	14µM*	0.1%	?
COC(=O)c1cscc1S(=O)(=O)Cc1ccccc1	3%	0.0	2	19	-2.6%	-0.6%	1.5
